Rango release inh – inhibitors of RanGTP-induced Rango-importin beta complex dissociation. O95149+P62826. Biochemical FRET Rango-importin beta, RanGTP-induced dissociation. Potency, µM (titrated, usually from 46.1 µM), for the others: top-dose activity change, negative = inhibition. 340,000 compounds, 0.071% hits. AID 540253; active means falling FRET ratio curve, often poorly fitted, with flat reads before Ran was added; inconclusive means other falling curves, or compound fluorescence or quenching; inactive means flat or rising ratio curve;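 further: potency means the concentration at half of the fitted maximal effect; % of control where 0% means no effect; nearly all actives have a fitted effect of over 45% in size; -100% = wells without RanGTP and RCC1; the record marks most hits as doubtful in a second field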
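Rango FRET biosensor (snurportin-1 IBB flanked by N-terminal EYFP and C-terminal CFP10) at 0.1 uM, with 0.25 uM importin beta in PBS, 1mM DTT, 0.02% Tween-20, 0.1% BSA. 0.6 uM Ran, 2mM GTP and 0.2 uM RCC1 were then added for 45 min at room temperature. Inhibition read as loss of FRET rise.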
Rango-impB inh – inhibitors of Rango-importin beta complex formation; Q14974; Rango CFP/YFP FRET sensor + importin beta, 45 min; Potency, µM (top dose mostly 92.2 µM), for inactives: at the top dose inhibition of complex formation; 340,000 compounds, 0.031% hits; active = rising FRET ratio curve, often small or poorly fitted; inconclusive = mostly compound fluorescence or quenching in the first reads; inactive = flat curves in all reads;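 further: potency means the concentration at half of the fitted maximal effect; 0% = DMSO wells and 100% = buffer wells lacking importin beta; nearly all actives have a fitted effect of over 15% in size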
Target sequence (Q14974 whole entry, looked up): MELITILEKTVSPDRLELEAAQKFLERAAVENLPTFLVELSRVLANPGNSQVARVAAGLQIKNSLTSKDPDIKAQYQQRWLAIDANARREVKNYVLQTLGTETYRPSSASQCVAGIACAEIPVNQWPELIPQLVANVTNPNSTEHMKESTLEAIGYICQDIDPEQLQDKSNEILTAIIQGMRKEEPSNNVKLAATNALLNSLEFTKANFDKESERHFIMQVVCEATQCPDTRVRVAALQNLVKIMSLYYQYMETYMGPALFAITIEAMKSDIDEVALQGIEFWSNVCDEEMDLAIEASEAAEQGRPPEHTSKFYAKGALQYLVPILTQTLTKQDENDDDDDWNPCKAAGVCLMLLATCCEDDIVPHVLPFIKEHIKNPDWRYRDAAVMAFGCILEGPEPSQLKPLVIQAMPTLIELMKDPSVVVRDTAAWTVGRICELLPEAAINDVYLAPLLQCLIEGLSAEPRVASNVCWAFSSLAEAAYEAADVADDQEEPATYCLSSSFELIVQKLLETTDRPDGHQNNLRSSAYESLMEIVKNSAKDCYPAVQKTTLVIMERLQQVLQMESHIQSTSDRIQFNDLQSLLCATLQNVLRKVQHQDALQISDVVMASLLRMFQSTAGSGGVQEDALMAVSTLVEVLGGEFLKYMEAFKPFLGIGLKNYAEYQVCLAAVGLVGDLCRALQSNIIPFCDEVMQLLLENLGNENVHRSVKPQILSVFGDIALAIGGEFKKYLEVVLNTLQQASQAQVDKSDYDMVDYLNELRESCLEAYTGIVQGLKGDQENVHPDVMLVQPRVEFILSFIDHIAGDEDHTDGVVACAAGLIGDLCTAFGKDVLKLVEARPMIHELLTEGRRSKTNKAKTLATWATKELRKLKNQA
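FRET biosensor (snurportin 1 IBB flanked by EYFP and cerulean), 50 nM, with compound 5 min, then 0.125 microM importin beta in PBS, 1 mM DTT, 0.02% Tween-20, 0.1% BSA. CFP/YFP ratio read after 45 min at room temperature; pre-read flags interference.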
miR-21 reporter – raises the signal of a miR-21 reporter; Potency, µM (doses to about 38.3 µM), for the others: top-dose reporter change, positive = more light; 340,000 tested, under 10 active; HeLa miR-21 FLuc reporter, luciferase, 48 h; active = well fitted rising curve with a large enough effect; inconclusive = small, poorly fitted or top-dose-only effect; inactive = no such curve, though single readings can be large or run the other way;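 further: % of control where 0% means no effect; miR-21 action dims this reporter so a rising signal means less miR-21 action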
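Compounds were titrated across several concentrations (up to approximately 40 uM) and incubated 48 hours with HeLa miR-21-FLuc reporter cells (miR-21 target sequence downstream of FLuc, endogenous miR-21). Readout was firefly luciferase luminescence after lytic detection reagent.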
GLA inh pH 4.5 – blocks human alpha-galactosidase A at pH 4.5; activity change, negative = inhibition, % at 105 µM; purified enzyme, 4-MU-alpha-Gal fluorescence, pH 4.5; P06280; 230,000 tested, under 10 active; inconclusive = small, poorly fitted or top-dose-only inhibition, or a rising curve; inactive = flat fitted curve, though single readings scatter; no compound was filed as active;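 further: 0% = full activity with enzyme and -100% = basal without enzyme; dose as in the result columns while the protocol names 77 µM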
* = called active by the depositor; ? = inconclusive; . = not tested or not shown; & = joins results of further samples.

Values run as follows: Rango release inh, Rango-impB inh, miR-21 reporter, GLA inh pH 4.5
CC(C)OC(=O)c1cc(NC(=O)C2C3C=CC(O3)C2C(=O)O)cc(C(=O)OC(C)C)c1 (stereo not given)
    2%, -0.2%, -19%, .
CCN(c1ccc(OC)cc1)c1ncnc2nc[nH]c12
    -3%, 0.3%, 17%, 7
COc1ccc(NC(=O)Cc2c(C)n(C(=O)c3ccc(Cl)cc3)c3ccc(OC)cc23)cc1
    -11%, 0.8%, -9%, -5
CCOC(=O)C1=C(C)N=c2s/c(=C/c3ccccc3)c(=O)n2C1c1ccc(OC)c(OC)c1 (stereo not given)
    ?, -4.0%, -8%, 6
Cc1cc(C)c(-c2csc(NC(=O)COC(=O)c3ccc4c(c3)OCO4)n2)c(C)c1
    6%, -0.6%, 1%, -7
COc1ccc(S(=O)(=O)NCCOc2ccccc2)cc1OC
    16%, 0.2%, -6%, 9
COc1ccc(NC(=O)c2ccc(NC(=O)CN3CCC(C(N)=O)CC3)cc2)cc1
    0%, -0.1%, ., .
COc1cccc(NC(=O)c2cccc(C)c2[N+](=O)[O-])c1
    15%, -1.5%, -40%, 3
O=C(O)C1(Nc2ccccc2Cl)CCCC1
    -9%, 1.9%, ., .
COc1ccc(NC(=O)c2ccc(-c3ccccc3)cc2)cc1S(=O)(=O)N1CCOCC1
    3%, 1.3%, 17%, -10
O=C(CN1CCC(n2nnc3ccccc32)CC1)NCc1cccs1
    -4%, 3.2%, -2%, 9
CCOc1ccc2[nH]cc(C(=O)NCc3ccccc3)c(=O)c2c1
    -2%, 4.7%, 8%, .
O=C(COC(=O)CCSc1ccccc1)Nc1ccc(F)cc1Cl
    1%, 0.2%, -10%, -10
COc1cc(C(C)=O)ccc1OCC(=O)N(CCC1=CCCCC1)c1c(N)n(Cc2ccccc2)c(=O)[nH]c1=O
    -2%, -3.1%, ., .
NS(=O)(=O)c1ccc(NNC(=O)c2cccs2)cc1
    -3%, -1.8%, -4%, 2
CCC1(C)Cc2nc(Cl)c(C#N)cc2CO1 (stereo not given)
    -8%, -4.3%, -8%, 5
COc1ccc(S(=O)(=O)Nc2ccccn2)cc1C(=O)Nc1ccccc1
    -1%, -1.5%, 1%, .
CC(C)CCNC(=O)CN(C)S(=O)(=O)c1cccc2nsnc12
    -2%, -2.5%, -6%, 2
c1csc(CNc2ncnc3ccc(-c4ccc5c(c4)OCCO5)cc23)c1
    -9%, 1.5%, ., .
CCOc1cc(S(=O)(=O)NCc2ccccn2)c(C)cc1C
    ., ., -1%, 2
O=C(NC(=S)Nc1cc(C(F)(F)F)ccc1N1CCOCC1)c1ccc(-c2cccc(Cl)c2)o1
    14%, -2.9%, -8%, -8
COc1c(F)c(F)c(C(=O)Nc2c(C)cc(Br)cc2C)c(F)c1F
    -14%, -1.7%, -1%, -1
CS(=O)(=O)N1N=C(c2ccco2)CC1c1ccco1 (stereo not given)
    0%, -2.2%, -6%, .
CCCCn1c(SCC(=O)Nc2ccc(NC(C)=O)cc2)nc2ccccc2c1=O
    12%, 7.0%, 1%, .
O=C(OCC(=O)N(CCc1ccccc1)Cc1ccccc1)c1cc(S(=O)(=O)N2CCOCC2)ccc1F
    0%, -0.1%, ., .
COCCNC(=O)c1ccccc1NC(=O)c1ccc(OC)c(OC)c1
    -12%, -0.1%, -2%, 11
Cc1ccc2nc(SCC(=O)Nc3ccccc3N3CCOCC3)c(C#N)cc2c1
    14%, 4.0%, 3%, 5
C#CCOc1c(Cl)cc(/C=N/O)cc1OC
    15%, 2.3%, -10%, -14
O=C(CSc1ccccc1)NCCSCc1ccccc1
    2%, -2.0%, -44%, -8
Cc1ccc(NC(=O)N2CCCC2C(=O)Nc2ccc3c(c2)OCCO3)cc1 (stereo not given)
    -9%, 0.2%, -7%, .
CSc1ncccc1C(=O)OCC(=O)c1ccc(C)s1
    9%, -3.3%, ., .
CCCCc1cc(=O)oc2c(CN(C)C)c(O)c(Cl)cc12
    ?, ?, -1%, ?
Cc1cc2nnc(SCC(=O)N3CCOCC3)n2c2ccccc12
    -11%, -0.3%, -1%, 5
C/C=C(\C)CN1CCC(n2nccc2NC(=O)c2ccc(OC)cc2)CC1
    2%, 0.1%, 0%, .
CC(NCCO)C(=O)C12CC3CC(CC(C3)C1)C2 (stereo not given)
    6%, -0.9%, 0%, -4
COc1cccc(C(=O)Nc2ccc(NC(=O)C(C)C)nc2)c1
    18%, 2.8%, -18%, -8
COc1ccc(N2CCN(C(=O)CN(c3ccccc3)S(C)(=O)=O)CC2)cc1
    4%, -4.6%, -6%, 1
O=c1oc2ccccc2cc1-c1ccc(O)cc1
    21%, 0.6%, -67%, 6
O=C(O)CNc1nc(Cl)ccc1[N+](=O)[O-]
    5%, 2.7%, 1%, -6
COCCn1c(C)cc(/C=C(\C#N)C(=O)OCC(=O)Nc2ccc(S(N)(=O)=O)cc2)c1C
    ?, ?, ., .
O=C(Cc1ccccc1[N+](=O)[O-])OCC(=O)c1c[nH]c2ccccc12
    3%, 0.1%, ., .
C/C(=N\NC1=NCCN1)c1ccccc1
    9%, -4.3%, -6%, -8
Cc1cc(C)c2nc(C)cc(Nc3ccc(C(=O)NCCO)cc3)c2c1
    -2%, 3.3%, 29%, -7
CC(=O)NC(CCS(C)(=O)=O)C(=O)N1CCc2ccccc21 (stereo not given)
    -15%, 0.0%, -3%, -2
CC(C)n1cnc2c(NCc3ccccc3)cc(N[C@H](C)CO)cc21
    ?, ?, ., .
CCCc1c(C(=O)N2CCN(c3ccccc3OC)CC2)cnn1-c1ccccc1
    -8%, 4.0%, 7%, -2
NC(=O)C1CCCN(C(=O)CNC(=O)C23CC4CC(CC(C4)C2)C3)C1 (stereo not given)
    -1%, 0.2%, ., .
Cc1ccccc1NC(=O)/C(C#N)=C\c1cn(CC(=O)O)c2ccccc12
    ?, ?, -8%, -1
CN(C)S(=O)(=O)c1cccc(C(=O)N2CCc3ccccc32)c1
    1%, -2.6%, -7%, -6
Cc1cc(NC(=O)COC(=O)[C@H](Cc2c[nH]c3ccccc23)NC(=O)c2ccc(F)cc2)no1
    2%, -1.3%, -2%, 0

Looked up by structure from above (7):
Values run as follows: Rango release inh, Rango-impB inh, miR-21 reporter, GLA inh pH 4.5
Cc1cc(NC(=O)COC(=O)[C@H](Cc2c[nH]c3ccccc23)NC(=O)c2ccc(F)cc2)no1
    2%, -1.3%, -2%, 0
CN(C)S(=O)(=O)c1cccc(C(=O)N2CCc3ccccc32)c1
    1%, -2.6%, -7%, -6
CCCc1c(C(=O)N2CCN(c3ccccc3OC)CC2)cnn1-c1ccccc1
    -8%, 4.0%, 7%, -2
O=C(Cc1ccccc1[N+](=O)[O-])OCC(=O)c1c[nH]c2ccccc12
    3%, 0.1%, ., .
Cc1ccccc1NC(=O)/C(C#N)=C\c1cn(CC(=O)O)c2ccccc12
    ?, ?, -8%, -1
Cc1cc(C)c2nc(C)cc(Nc3ccc(C(=O)NCCO)cc3)c2c1
    -2%, 3.3%, 29%, -7
CC(=O)NC(CCS(C)(=O)=O)C(=O)N1CCc2ccccc21 (stereo not given)
    -15%, 0.0%, -3%, -2

Additional entries follow:
Values run as follows: Rango release inh, Rango-impB inh, miR-21 reporter, GLA inh pH 4.5
CCOc1ccc(Nc2nc(N)c3ccccc3n2)cc1
    8%, -2.5%, ?, .
Cc1ccc(S(=O)(=O)N2CCCCC2)cc1C(=O)N(C)CCOc1ccccc1
    6%, 7.8%, 0%, .
Cc1noc(C)c1CSc1ccccc1C(=O)N1CCN(c2ccccc2)CC1
    -11%, -1.6%, 2%, -15
CC[C@]12c3[nH]c4ccc(Cl)cc4c3CCN1C(=O)[C@@H](CC(=O)NCCC1=CCCCC1)C[C@@H]2C(=O)N1CCN(C(=O)C2CC2)CC1
    8%, 0.4%, ., .
COc1ccc(N(CC(=O)N/N=C/c2ccc(N(C)C)cc2)S(=O)(=O)c2ccccc2)cc1
    17%, 1.0%, -5%, .
COc1ccc(N2CCN(C(=O)c3ccc(N(C)S(=O)(=O)c4ccc(C)cc4)cc3)CC2)cc1
    -6%, -0.6%, 12%, 0
CN1CCN(C(=O)c2ccc3c(c2)OCCO3)CC1
    -5%, -0.5%, -11%, -9
COC(=O)C1=C(C)N(Cc2cccnc2)C(=O)C1
    -3%, 1.4%, 0%, -4
COc1cccc2c1cc1c(=O)n(CC(=O)NC3CCCCC3)nc(C)n12
    12%, 3.2%, 0%&0%, .
COc1cc(C)ccc1OCc1cc(C(=O)NCc2ccncc2)no1
    4%, -3.0%, -50%, .
CC(=O)c1cc(-c2nc3ccccc3n2C)n(C)c1
    7%, 3.4%, -1%, -19
Cc1cccc(S(=O)(=O)Nc2ccc(-c3nc4ccc(C)cc4s3)cc2)c1
    ?, ?, -70%, ?
Cc1cc(C(=O)N/N=C/c2ccncc2)c(C)o1
    -20%, 0.0%, -12%, 1
COC(=O)[C@H]1Cc2c([nH]c3ccccc23)[C@H](c2ccccc2)N1
    -8%, -4.3%, 2%, .
CCOc1ccc(NC(=O)CN(C)C(=O)COc2cccc3c2OC(C)(C)C3)cc1OCC
    26%, 0.1%, ., .
COc1cccc(C(=O)NN2C(=S)N(c3ccccc3)C(=O)C2CC(N)=O)c1 (stereo not given)
    -8%, -1.8%, -68%, -4
CONC(=O)Nc1ccccc1[N+](=O)[O-]
    2%, -0.2%, -9%, 0
COCCCNC(=O)CS(=O)(=O)Cc1nc(-c2ccccc2C)oc1C
    -2%, 2.7%, -6%, -17
O=C(CN1C(=O)S/C(=C\c2cccc(Cl)c2)C1=O)NC1C=CS(=O)(=O)C1 (stereo not given)
    -1%, -0.5%, -2%, .
COc1ccc(N(C2CSC2)S(=O)(=O)c2ccccc2)cc1
    12%, -1.8%, -2%, -4
CCOC(=O)C1CCCN(C(=O)c2cn(CC)c3ccc(S(=O)(=O)N4CCCC4)cc3c2=O)C1 (stereo not given)
    -1%, ?, -7%, 6
COc1ccc(NC(=O)c2cccnc2Nc2ccc(OC)cc2)cc1
    24%, -3.2%, -10%, -7
Cc1cccc(NS(=O)(=O)c2cccc(C(=O)N3CCCCCCC3)c2)c1
    -2%, -2.8%, ., .
c1ccc(CNc2nc(-c3cccs3)nc3ccccc23)nc1
    2%, -0.5%, 0%, -5
Cc1cccc(NC(=O)C2CCN(S(=O)(=O)c3c(C)noc3C)CC2)c1
    -3%, 0.7%, 0%, .
Cn1cccc1Cc1nnc(SCC(=O)Nc2ccc(F)cc2)n1-c1ccc(F)cc1
    8%, 4.7%, -2%, 8
CCOc1ccc(N(C(=O)c2snc(C(N)=O)c2N)C(C(=O)NC2CCCC2)c2ccncc2)cc1 (stereo not given)
    2%, -2.0%, -3%, .
COc1ccc(NC(=O)CN2C(=O)c3ccccc3S2(=O)=O)cc1S(=O)(=O)N1CCOCC1
    22%, -0.5%, ., .
C/C(=N\NC(=O)c1cc(-c2cccs2)nc2ccccc12)c1ccccn1
    9%, 2.1%, 15%, 5
OC(CNC1CCCC1)COCCOc1ccc(Br)cc1 (stereo not given)
    -11%, 0.0%, -4%, -3
CS(=O)(=O)c1ccc(S(=O)CC(=O)Oc2ccc(Cl)cc2)c([N+](=O)[O-])c1 (stereo not given)
    -11%, 3.7%, ?, 0
COc1ccc(Nc2nc(C)c3ccccc3n2)cc1
    3%, -2.2%, -64%, -12
O=C(O/N=C\c1ccc(N2CCCCC2)c([N+](=O)[O-])c1)c1cccc(C(F)(F)F)c1
    -19%, 0.2%, -1%, 2

Compound activity as filed in PubChem BioAssay.

This is a subset. The share of hits here may be higher or lower than overall.
